total CFTR – total CFTR protein upregulators, primary screen, cell-based, HeLa F508del-CFTR, immunofluorescence, viability (AID 1224863). HeLa F508del-CFTR, immunofluorescence total CFTR, 24 h; by the record results were divided by relative cell number; some inactives read as strong as hits. 0.1% of 10,000 active. calls, or highest fold increase where a dose series was run. Cystic fibrosis transmembrane conductance regulator (Homo sapiens); in the data nearly all actives have a first-pass fold increase above 1.5; a few of its hits are not listed in these tables;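 further: total CFTR protein by anti-CFTR immunofluorescence in fixed cells; first pass at 25 µM or 10 µg/mL by library and series up to twice that; 1 = untreated cells; first-pass hits also needed half or more of the cells alive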
total CFTR fold 25 µM – second read-out of total CFTR, no call of its own (marks repeat the call); fold increase; measured here: primary screen single dose 25 uM; library dosed in µM
total CFTR fold 10 ug/mL – recorded beside total CFTR, whose call it bears; fold increase; measured here: primary screen 10 ug/mL
total CFTR viability 25 µM – also measured in total CFTR; calls as there; viability, %; measured here: primary viability 25 uM; library dosed in µM;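 0% = killed and 100% = untreated cells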
total CFTR viability 10 ug/mL – further read-out of total CFTR, marked with its call; viability, %; measured here: primary viability 10 ug/mL;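 0% = killed and 100% = untreated cells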
Numbers without * were called inactive; i = inactive; nt = not tested or not shown; + = active, no number; & = joins results of further samples.

SMILES	total CFTR	total CFTR fold 10 ug/mL	total CFTR viability 10 ug/mL	others
COc1cc(C(=O)OCC(=O)C(C)(C)C)cc(Br)c1O	i	0.84	106
O=c1c2c3c(sc2nc(SCc2nc4ccc(Cl)cc4n2CCO)n1CC1CCCO1)CCC3 (centres undefined)	i	1.1	89
COc1ccc(/C=C2\C(=O)C3(C)CCC2C3(C)C)cc1 (centres undefined)	i	0.9	92
O=C(O)c1cn(CCO)nn1	i	1.2	99
O=[N+]([O-])c1cccc(-c2nccs2)c1	i	1.1	91
[O-][n+]1c2c(nn1-c1ccc(Cl)cc1Cl)-c1nonc1CC2	i	1	80
O=S(=O)(Nc1ccc(S(=O)(=O)C(F)F)cc1)c1ccc(C(F)(F)F)cc1	i	0.84	88
Cn1cccc1C(=O)NCCNC(=O)c1nccnc1N	i	1	101
COc1ccc(C(=O)OCC(=O)C23CC4CC(CC(C4)C2)C3)c(O)c1	i	0.92	84
CS(=O)(=O)NCC1CCCN(c2nccc(C(F)(F)F)n2)C1 (centres undefined)	i	1.1	96
O=C(OCn1nnc2ccccc2c1=O)c1ccccc1OCCOc1ccccc1	i	1	85
Cc1cc(C(=O)COC(=O)C23CC4CC(CC(C4)C2)C3)c(C)n1CC1COc2ccccc2O1 (centres undefined)	i	0.95	101
Cc1nc(N)sc1Cc1ccc(OC(F)(F)F)cc1	i	1	88
NCc1nnc2n1CCCC2	i	1.2	92
Cc1nc(N2CCOCC2)[nH]c(=O)c1CCC(=O)NCC1(N2CCOCC2)CCCCC1	i	1.2	104

3 entries picked at random from the list so far:
SMILES	total CFTR	total CFTR fold 10 ug/mL	total CFTR viability 10 ug/mL	others
Cn1cccc1C(=O)NCCNC(=O)c1nccnc1N	i	1	101
Cc1cc(C(=O)COC(=O)C23CC4CC(CC(C4)C2)C3)c(C)n1CC1COc2ccccc2O1 (centres undefined)	i	0.95	101
O=C(OCn1nnc2ccccc2c1=O)c1ccccc1OCCOc1ccccc1	i	1	85

Sorted by length of the SMILES (rising): 3 of the compounds above.
SMILES	total CFTR	total CFTR fold 10 ug/mL	total CFTR viability 10 ug/mL	others
NCc1nnc2n1CCCC2	i	1.2	92
O=[N+]([O-])c1cccc(-c2nccs2)c1	i	1.1	91
COc1cc(C(=O)OCC(=O)C(C)(C)C)cc(Br)c1O	i	0.84	106

Later entries:
SMILES	total CFTR	total CFTR fold 10 ug/mL	total CFTR viability 10 ug/mL	others
CSCc1nnc(Sc2nc3c(Cl)c(C)nn3c3ccccc23)o1	i	0.99	93
CC(C)C(NC(=O)C12CC3CC(CC(C3)C1)C2)C(=O)NCC1CCCO1 (centres undefined)	i	1.1	95
CN(CN1C(=O)C(=O)c2ccccc21)C(c1ccccc1)c1ccccc1	i	1.1	103
Cc1ccc(-n2c(C)nnc2SCc2cc(F)cc3c2OCOC3)cc1	i	0.96	75
CNc1ncnc(Sc2ccc(Br)cc2)c1[N+](=O)[O-]	i	1	98
O=C1CCC(C(=O)OCCOc2ccc(Cl)cc2)=NN1	i	1	101
COC(=O)c1sccc1NC(=O)CCCN1C(=O)CCC1=O	i	1.2	93
Cc1noc(C(C)C)c1C(=O)N1CCN(S(=O)(=O)N(C)C)CC1	i	1.2	103
CN(C)c1nc(N)nc(COC(=O)c2cc3ccccc3s2)n1	i	0.98	113
O=C(NCc1ccc2c(c1)OCO2)C12CC3CC(CC(Cl)(C3)C1)C2	i	1	105
Clc1ccc(-c2cc(CSc3nnnn3Cc3ccco3)on2)cc1	i	1.1	114
O=C(C1CC(=O)N(c2ccc3c(c2)OCCO3)C1)N1CCCC1 (centres undefined)	i	1.1	102
Nc1ccc2cc3ccc(N)cc3nc2c1	+	nt	nt	total CFTR fold 25 µM=5.2*;total CFTR viability 25 µM=62*
COc1ccc(OC)c(S(=O)(=O)Nc2cc3c(cc2Cl)OCO3)c1	i	1.1	86
CCN(CC)S(=O)(=O)c1ccc(S(=O)(=O)NC2CCCCCCC2)cc1	i	0.9	79
CN1C(=O)NC(=O)C1=O	i	1.2	112
Cc1ccc(CN(C(=O)c2ccc(S(=O)(=O)N3CCOCC3)o2)C2CC2)o1	i	0.8	83
Cc1c(/C=C2\COc3ccccc3C2=O)cc(C#N)n1C	i	0.94	86
O=c1n(CCn2cc([N+](=O)[O-])cn2)nc2ccccn12	i	1	102
CC(CNC(=O)c1ccc([N+](=O)[O-])o1)N1CCc2sccc2C1 (centres undefined)	i	0.89	71
O=C(c1ccc(F)c(F)c1)c1cc2cc(Cl)ccc2o1	i	0.95	91
COc1ccc(CNCCC(C)C)cc1	i	1	101
CNC(=O)CN(C)C(=O)CCCc1nc(C(C)(C)C)no1	i	0.93	99
CN(C)CCOc1ccc(/C(=C(/CCCl)c2ccccc2)c2ccccc2)cc1	i	nt	nt	total CFTR fold 25 µM=0.95&0.93&0.67;total CFTR viability 25 µM=91&92&79
COc1cc(F)c(S(=O)(=O)Nc2ccccc2I)cc1OC	i	1.1	93
CN(Cc1cccc(C#N)c1)Cn1ncc(Br)c(Br)c1=O	i	0.99	77
CC1(C)COCCN1S(=O)(=O)c1ccc(Cl)cc1F	i	0.95	93
Clc1ccc(OCCNc2ccc(-n3cnnn3)cc2)c(Br)c1	i	0.86	74
N#Cc1nc2c(S(=O)(=O)c3ccccc3)c(N)n(Cc3cccnc3)c2nc1C#N	1.7	1.5	73
CO/N=C(\C(=O)N[C@@H]1C(=O)N2C(C(=O)OCOC(=O)C(C)(C)C)=C(/C=C\c3scnc3C)CS[C@H]12)c1csc(N)n1	i	nt	nt	total CFTR fold 25 µM=1.1;total CFTR viability 25 µM=84
Cc1ccc(C(C)NC(=O)c2csc(-c3ccco3)n2)o1 (centres undefined)	i	0.95	85
Cc1cc(N2CCN(C(=O)NC(C)C)CC2)nc(C(C)C)n1	i	0.86	95
COc1cc([N+](=O)[O-])ccc1S(=O)(=O)N1CCOCC1	i	1.1	101
COC(=O)c1cc([N+](=O)[O-])cn(CN2CCN(c3cnccn3)CC2)c1=O	i	1	106
COC(=O)C1=C(C)N(C)C(=O)NC1c1ccc(OC)c(OC(F)F)c1 (centres undefined)	i	0.94	98
CCOC(=O)c1ccc(C#Cc2ccc3c(c2)C(C)(C)CCS3)nc1	i	nt	nt	total CFTR fold 25 µM=0.94;total CFTR viability 25 µM=109
CN(Cc1ccc2c(c1)OCCO2)Cn1ncc2ccccc2c1=O	i	0.86	55
O=S(=O)(c1ccccc1OC(F)(F)F)N1CCN(c2nccs2)CC1	i	0.99	95
Cc1nc(Cc2nc(-c3ccc4c(c3)CCCC(=O)N4)cs2)cs1	i	0.98	85
CN(Cc1ccc(Cl)c(Cl)c1)Cn1nc(C2CCS(=O)(=O)C2)n(C)c1=S (centres undefined)	i	1.1	99
CN(C)CCc1c[nH]c2ccc(CS(=O)(=O)N3CCCC3)cc12	i	nt	nt	total CFTR fold 25 µM=1.1;total CFTR viability 25 µM=91
C[C@]12CCC3c4ccc(O)cc4CCC3C1C[C@@H](O)[C@@H]2O (some centres undefined)	i	nt	nt	total CFTR fold 25 µM=0.86;total CFTR viability 25 µM=89
CCOC(=O)c1ccc(O)cc1	i	nt	nt	total CFTR fold 25 µM=1;total CFTR viability 25 µM=93
O=S1(=O)N=C2CCCCCN2c2ccc(F)cc21	i	0.97	91
CC1CC(C)CN(C(=O)CN2CCN(C(=O)c3coc(Br)c3)CC2)C1 (centres undefined)	i	1	100
COc1ccc(COc2ccc(-c3nnco3)cc2)cc1Br	i	0.96	98
CC1CCc2c(sc(NC(=O)CN3CCOC(C)C3)c2C#N)C1 (centres undefined)	i	1	113
O=c1c2cc(Cl)ccc2nc2n1CC/C2=C\c1cc(Cl)c2c(c1)OCCCO2	i	0.99	89
O=S(=O)(c1ccc2c(c1)CCCC2)N1CCN(Cc2ccco2)CC1	i	1	93
O=S(=O)(NCC1Cc2ccccc2O1)c1cccs1 (centres undefined)	i	1.1	102
CN(CN1C(=O)NC(C)(C2CC2)C1=O)CC12CC3CC(CC(C3)C1)C2 (centres undefined)	i	0.97	102
COCCCn1c(C)cc(C(=O)COC(=O)c2ccc([N+](=O)[O-])s2)c1C	i	1	82
Cc1c(C(=O)O)sc(S(=O)(=O)N2CCN(C(=O)CCC3CCCC3)CC2)c1C(=O)O	i	1	91
Cc1cc(C(=O)CSc2n[nH]c(-c3cccs3)n2)c(C)n1CC(F)(F)F	i	1.1	99
NC(=O)NC(=O)COC(=O)c1cccs1	i	1	104
Cn1cnc2c1c(=O)n(CCCOC(=O)C1(c3ccc(Br)cc3)CCCC1)c(=O)n2C	i	0.96	92
CCOC(=O)c1sc2ncnc(NCC(C)N(CC)CC)c2c1C (centres undefined)	i	0.88	99
CCN(CC)S(=O)(=O)N1CCN(S(=O)(=O)c2cccs2)CC1	i	0.91	96
CN(CC1COc2ccccc2O1)c1ncnc2sc3c(c12)CCC3 (centres undefined)	i	1	91
NCCc1ccc(O)c(O)c1	i	nt	nt	total CFTR fold 25 µM=1.2&1.2;total CFTR viability 25 µM=108&102
Going on with the list:
SMILES	total CFTR	total CFTR fold 10 ug/mL	total CFTR viability 10 ug/mL	others
COCCCC/C(=N\OCCN)c1ccc(C(F)(F)F)cc1	i	nt	nt	total CFTR fold 25 µM=1.1;total CFTR viability 25 µM=100
N#Cc1cnc2ccc(Br)cc2c1Cl	i	1.2	98
Cn1cc(-c2nc(-c3ccc(Cl)cc3Cl)cs2)cn1	i	0.98	88
COc1ccc(-c2nnc(SCc3c(C)noc3C)n2C)cc1	i	0.98	96
CC(O)CC(C)(C)O (centres undefined)	i	nt	nt	total CFTR fold 25 µM=0.96;total CFTR viability 25 µM=97
CNC(=O)CN1CCC(NC(=O)CSC(F)(F)F)CC1	i	1.1	90
Cc1nc(SCC(=O)Nc2sc3c(c2C(N)=O)CCCC3)n(C2CCCC2)c1C	i	0.97	97
CC(C)(C)c1nnc(CSc2nnc(NC3CC3)s2)o1	i	1.2	91
CN1C(=O)c2ccc(NC(=O)C34CC5CC(CC(Br)(C5)C3)C4)cc2C1=O	i	0.96	90
CC(C)NCC(O)COc1ccc(CC(N)=O)cc1 (centres undefined)	i	nt	nt	total CFTR fold 25 µM=0.99&1;total CFTR viability 25 µM=94&87
CC(C)CN(CC(C)C)CN1C(=O)NC(C)(C2CC2)C1=O (centres undefined)	i	0.99	100
Cc1c(C(=O)OC(C)C(=O)N(c2nccs2)C2CCCCC2)cnn1C (centres undefined)	i	0.99	81
CCCC(C)NC(=O)CN1C(=O)NC2(CCCC2)C1=O (centres undefined)	i	0.99	103
CCN(CC)S(=O)(=O)c1ccc(S(=O)(=O)N(C)C)cc1	i	0.9	102
CCN1CCC[C@H]1CNC(=O)c1c(O)c(Cl)cc(Cl)c1OC	i	nt	nt	total CFTR fold 25 µM=1.1;total CFTR viability 25 µM=81
Cc1ccc(C(=O)Nc2ccc(S(=O)(=O)O)c3cc(S(=O)(=O)O)cc(S(=O)(=O)O)c23)cc1NC(=O)c1cccc(NC(=O)Nc2cccc(C(=O)Nc3cc(C(=O)Nc4ccc(S(=O)(=O)O)c5cc(S(=O)(=O)O)cc(S(=O)(=O)O)c45)ccc3C)c2)c1	i	nt	nt	total CFTR fold 25 µM=1&1.1;total CFTR viability 25 µM=106&88
O=S(=O)(c1ccc(F)cc1Cl)N1CCCN(S(=O)(=O)c2ccc(F)cc2Cl)CC1	i	1	82
O=C(Nc1ccc2c(c1)OCO2)C1CCN(CN2C(=O)C3CC=CCC3C2=O)CC1 (centres undefined)	i	0.97	90
CCCCN(C(=O)C1CC(=O)N(c2ccc3c(c2)OCCO3)C1)c1c(N)n(CC(C)C)c(=O)[nH]c1=O (centres undefined)	i	1.1	101
CN1CCCN=C1/C=C/c1cccs1	i	nt	nt	total CFTR fold 25 µM=0.87&1.1;total CFTR viability 25 µM=81&78
COc1ccc(C(=O)c2ccccc2O)c(O)c1	i	nt	nt	total CFTR fold 25 µM=0.94;total CFTR viability 25 µM=84
Cc1cc(C)n2c(n1)nc(=S)n2CN1CCN(c2ncccn2)CC1	i	1.1	103
CCCC(=O)Nc1ncnc2c1ncn2C1O[C@@H]2COP(=O)(O)O[C@H]2[C@H]1OC(=O)CCC (some centres undefined)	i	nt	nt	total CFTR fold 25 µM=1.1;total CFTR viability 25 µM=107

Not a retest: entries from further up.
SMILES	total CFTR	total CFTR fold 10 ug/mL	total CFTR viability 10 ug/mL	others
CCN(CC)S(=O)(=O)c1ccc(S(=O)(=O)N(C)C)cc1	i	0.9	102
CCN1CCC[C@H]1CNC(=O)c1c(O)c(Cl)cc(Cl)c1OC	i	nt	nt	total CFTR fold 25 µM=1.1;total CFTR viability 25 µM=81
Cc1ccc(C(=O)Nc2ccc(S(=O)(=O)O)c3cc(S(=O)(=O)O)cc(S(=O)(=O)O)c23)cc1NC(=O)c1cccc(NC(=O)Nc2cccc(C(=O)Nc3cc(C(=O)Nc4ccc(S(=O)(=O)O)c5cc(S(=O)(=O)O)cc(S(=O)(=O)O)c45)ccc3C)c2)c1	i	nt	nt	total CFTR fold 25 µM=1&1.1;total CFTR viability 25 µM=106&88
O=S(=O)(c1ccc(F)cc1Cl)N1CCCN(S(=O)(=O)c2ccc(F)cc2Cl)CC1	i	1	82
O=C(Nc1ccc2c(c1)OCO2)C1CCN(CN2C(=O)C3CC=CCC3C2=O)CC1 (centres undefined)	i	0.97	90
CCCCN(C(=O)C1CC(=O)N(c2ccc3c(c2)OCCO3)C1)c1c(N)n(CC(C)C)c(=O)[nH]c1=O (centres undefined)	i	1.1	101
CN1CCCN=C1/C=C/c1cccs1	i	nt	nt	total CFTR fold 25 µM=0.87&1.1;total CFTR viability 25 µM=81&78

This is a subset; rates above refer to the full screens.
